Vaccinia stage = Vaccinia orthopox stage-specific inhibition; Vaccinia-infected cells, mCherry/Venus stage reporter fluorescence; stronger effect = lower value; some inactives read as strong as hits; activity change (mCherry), % (test concentration not listed); 89,000 tested, 0.01% active;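 active = mCherry past -33% and 40 or more points under the early reporter, replicates agreeing; inconclusive = past -33% without that gap or agreement; tested in A549 cells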;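 also: scaled between vehicle wells and reference inhibitor wells; 23 nL library stock went into each well; one replicate is shown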
Vaccinia stage Venus = also measured in Vaccinia stage; calls as there; activity change (Venus), %; measured here: Venus reporter, other viral stage;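 negative = less Venus signal; first of two replicates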
The depositor's hits bear a star; ? = inconclusive; . = no result given. The list is partial; count on the stated rates, not on these rows.

A first look (6 entries):
SMILES | Vaccinia stage | Vaccinia stage Venus
CN1C(=O)c2cc(NC(=O)c3ccc(F)cc3)ccc2OC[C@@H]2O[C@@H](CC(=O)NCC3CC3)CC[C@H]21 | 10 | 19
COc1ccc(S(=O)(=O)N(C)C[C@@H]2OCCCC[C@@H](C)Oc3ccc(NS(=O)(=O)c4ccc(F)cc4)cc3C(=O)N([C@H](C)CO)C[C@@H]2C)cc1 | -11 | -14
Cc1noc(C)c1S(=O)(=O)Nc1ccc2c(c1)C(=O)N([C@@H](C)CO)C[C@@H](C)[C@@H](CN(C)C(=O)NC1CCCCC1)OCCCC[C@@H](C)O2 | -23 | -13
Cc1noc(C)c1NC(=O)N(C)C[C@H]1OCc2cn(nn2)CCCC(=O)N([C@H](C)CO)C[C@@H]1C | 17 | 12
COCC(=O)N(C)C[C@@H]1Oc2cc(-c3cccnc3)ccc2S(=O)(=O)N([C@@H](C)CO)C[C@H]1C | 11 | 5
C[C@H](CO)N1C[C@H](C)[C@H](CN(C)CC2CC2)OCCCC[C@H](C)Oc2ccc(NC(=O)Nc3ccc4c(c3)OCO4)cc2C1=O | -22 | -23

The whole of this part (from the top)
SMILES | Vaccinia stage | Vaccinia stage Venus
CN1C(=O)c2cc(NC(=O)c3ccc(F)cc3)ccc2OC[C@@H]2O[C@@H](CC(=O)NCC3CC3)CC[C@H]21 | 10 | 19
COc1ccc(S(=O)(=O)N(C)C[C@@H]2OCCCC[C@@H](C)Oc3ccc(NS(=O)(=O)c4ccc(F)cc4)cc3C(=O)N([C@H](C)CO)C[C@@H]2C)cc1 | -11 | -14
Cc1noc(C)c1S(=O)(=O)Nc1ccc2c(c1)C(=O)N([C@@H](C)CO)C[C@@H](C)[C@@H](CN(C)C(=O)NC1CCCCC1)OCCCC[C@@H](C)O2 | -23 | -13
Cc1noc(C)c1NC(=O)N(C)C[C@H]1OCc2cn(nn2)CCCC(=O)N([C@H](C)CO)C[C@@H]1C | 17 | 12
COCC(=O)N(C)C[C@@H]1Oc2cc(-c3cccnc3)ccc2S(=O)(=O)N([C@@H](C)CO)C[C@H]1C | 11 | 5
C[C@H](CO)N1C[C@H](C)[C@H](CN(C)CC2CC2)OCCCC[C@H](C)Oc2ccc(NC(=O)Nc3ccc4c(c3)OCO4)cc2C1=O | -22 | -23
O=C(N[C@H]1C[C@@H]2O[C@@H](CO)CC[C@@H]2O[C@@H]1CCc1ccc(C#CC2CC2)cc1)c1cccc(F)c1 | 6 | 2
Cc1cc(C(=O)Nc2ccc3c(c2)C(=O)N(C)[C@@H]2CC[C@@H](CC(=O)NCC(F)(F)F)O[C@H]2CO3)no1 | -1 | 0
CO[C@H]1CN(C)C(=O)c2cc(NC(=O)C3CCCC3)ccc2OC[C@@H](C)N(C)C[C@@H]1C | -2 | -2
CNC[C@@H]1Oc2cc(-c3ccc(C)cc3)ccc2S(=O)(=O)N([C@@H](C)CO)C[C@H]1C | ? | .
CN1[C@@H]2c3ccc(C4=CCCCC4)c(=O)n3C[C@H]1[C@H](CO)[C@H]2C(=O)NCc1cccc(F)c1 | -2 | -3
COc1ccc(CN2C[C@@H](O)COC[C@H]3O[C@H](CC(=O)NCCN4CCCC4)CC[C@@H]32)cc1 | -12 | 12
C[C@@H]1CN([C@@H](C)CO)C(=O)c2cc(-c3ccccc3)cnc2O[C@H]1CN(C)Cc1ccc(C(=O)O)cc1 | 11 | 7
COc1ccc2c3c(n(C)c2c1)[C@@H](CO)N(C(=O)c1cnccn1)CC31CN(C(C)=O)C1 | 3 | -3
COc1ccc2c3c([nH]c2c1)[C@@H](CO)N(C(=O)c1ccncc1)CC31CCN(C(=O)CC2CC2)CC1 | 22 | 14
O=C(c1ccccn1)N1C[C@H]2[C@@H](c3ccccc31)[C@H](CO)N2C(=O)Nc1ccccc1 | 17 | 7
C/C=C/c1cnc2c(c1)C(=O)N([C@H](C)CO)C[C@@H](C)[C@H](CN(C)S(=O)(=O)c1ccccc1)O2 | 7 | 1
COCCNC(=O)C[C@H]1CC[C@H]2[C@@H](COC[C@H](O)CN2S(=O)(=O)c2ccccc2C)O1 | 13 | 10
C[C@@H]1CN([C@H](C)CO)C(=O)c2cc(C3=CCCCC3)cnc2O[C@H]1CN(C)C(=O)Nc1ccccc1 | -5 | -4
COc1ccccc1S(=O)(=O)N[C@@H]1CC[C@@H](CCNC(=O)C2CC2)O[C@@H]1CO | 7 | 9
Cc1ccc(S(=O)(=O)N[C@H]2CC[C@H](CCNC(=O)c3ccc4c(c3)OCO4)O[C@H]2CO)cc1 | -6 | 6
CC(=O)N1[C@@H]2c3cccc(=O)n3C[C@@H]2[C@@H](CO)[C@@H]1C(=O)NC1CCCCC1 | 0 | 9
O=C(C[C@@H]1C[C@@H]2c3cc(NC(=O)Nc4ccccc4F)ccc3O[C@@H]2[C@H](CO)O1)NCC1CC1 | 6 | 3
CCNC(=O)[C@@H]1[C@@H](CO)[C@@H]2Cn3c(ccc(-c4cccnc4)c3=O)[C@H]1N2Cc1ccccc1 | -6 | 4
C[C@@H]1CN([C@H](C)CO)C(=O)Cc2cc(NC(=O)CCN3CCOCC3)ccc2O[C@@H]1CN(C)CC1CCCCC1 | 2 | 11
C[C@@H]1CN([C@@H](C)CO)C(=O)CCCn2nncc2CO[C@@H]1CN(C)C(=O)Nc1cccc(C(F)(F)F)c1 | 8 | 7
O=C(c1cccc(F)c1)N1CCCCN2[C@H](C1)[C@H](c1ccc(C#CC3(O)CCCC3)cc1)[C@@H]2CO | 4 | 3
CCNC(=O)C[C@H]1C=C[C@H](NS(=O)(=O)c2ccc(F)cc2)[C@H](CO)O1 | 12 | 11
O=C(c1ccccc1)N1CC(=O)N2[C@H](CO)[C@H](c3ccc(C#CCC4CCCC4)cc3)[C@H]2C1 | ? | .
C[C@@H](NC(=O)[C@H]1[C@H](CO)[C@H]2Cn3c(cccc3=O)[C@H]2N1C(=O)C1CC1)c1ccccc1 | -8 | -11
CCCNC(=O)N1C[C@@H](O)COC[C@@H]2O[C@H](CC(=O)N3CCOCC3)CC[C@H]21 | 3 | 3
C[C@@H]1CN([C@H](C)CO)S(=O)(=O)c2ccc(-c3ccccc3)cc2O[C@H]1CN(C)Cc1cccnc1 | ? | .
C[C@@H]1CCCCO[C@@H](CN(C)C(=O)Nc2cccc3ccccc23)[C@H](C)CN([C@@H](C)CO)C(=O)c2cc(NC(=O)CCCN(C)C)ccc2O1 | 25 | 19
COc1ccc2c3c(n(C)c2c1)[C@H](CO)N(C(=O)CC1CC1)CC31CCN(C(=O)NC(C)C)CC1 | 3 | -1
Cc1ccc(S(=O)(=O)Nc2ccc3c(c2)C(=O)N([C@@H](C)CO)C[C@@H](C)[C@@H](CN(C)C(=O)Nc2cccc4ccccc24)OCCCC[C@H](C)O3)cc1 | 27 | 21
O=C(CC1CC1)N1CC2(C1)[C@H](c1ccccc1)[C@H](CO)N2S(=O)(=O)Cc1ccccc1 | 0 | 5
C[C@H](CO)N1C[C@H](C)[C@H](CN(C)C)Oc2cc(-c3cccnc3)ccc2S1(=O)=O | 16 | 13
CN1C(=O)c2cc(NC(=O)Nc3ccccc3)ccc2OC[C@H]2O[C@@H](CC(=O)NC3CCC3)CC[C@H]21 | -3 | -1
C/C=C/c1cnc2c(c1)C(=O)N([C@@H](C)CO)C[C@H](C)[C@H](CN(C)C(=O)NC1CCCCC1)O2 | 8 | -6
COc1ccc2c3c(n(C)c2c1)[C@@H](CO)N(C)CC31CCN(C(=O)Nc2cccc(F)c2)CC1 | -16 | -14

Compound profiles, as listed above:
C[C@@H]1CCCCO[C@@H](CN(C)C(=O)Nc2cccc3ccccc23)[C@H](C)CN([C@@H](C)CO)C(=O)c2cc(NC(=O)CCCN(C)C)ccc2O1 reads Vaccinia stage: 25; Vaccinia stage Venus: 19
C[C@@H]1CN([C@H](C)CO)C(=O)Cc2cc(NC(=O)CCN3CCOCC3)ccc2O[C@@H]1CN(C)CC1CCCCC1 reads Vaccinia stage: 2; Vaccinia stage Venus: 11
Cc1ccc(S(=O)(=O)N[C@H]2CC[C@H](CCNC(=O)c3ccc4c(c3)OCO4)O[C@H]2CO)cc1 reads Vaccinia stage: -6; Vaccinia stage Venus: 6

More results follow:
SMILES | Vaccinia stage | Vaccinia stage Venus
Cc1ccc(S(=O)(=O)N(C)C[C@H]2Oc3c(NC(=O)c4nc5ccccc5s4)cccc3C(=O)N([C@@H](C)CO)C[C@H]2C)cc1 | -25 | -21
CC=Cc1ccc2n(c1=O)C[C@H]1[C@H](CO)[C@@H](C(=O)OC)[C@@H]2N1C(=O)CC1CC1 (mixture of isomers) | 6 | 5
C[C@H](CO)N1C[C@H](C)[C@@H](CN(C)S(=O)(=O)c2ccc(F)cc2)Oc2c(NC(=O)Nc3cccc4ccccc34)cccc2C1=O | 0 | 5
Cc1ccc(S(=O)(=O)N(C)C[C@@H]2OCc3ccccc3-c3ccccc3C(=O)N([C@@H](C)CO)C[C@@H]2C)cc1 | -12 | -18
C/C=C/c1ccccc1[C@@H]1[C@@H](C#N)N(c2nc(CC)cs2)[C@@H]1CO | -18 | 2
CCCNC(=O)[C@H]1[C@H](CO)[C@H]2Cn3c(ccc(/C=C/c4ccccc4)c3=O)[C@@H]1N2C(=O)c1ccccc1 | 1 | -3
COc1ccc2c3c([nH]c2c1)[C@@H](CO)N(Cc1ccccc1Cl)CC31CCN(C(=O)C2CC2)CC1 | 7 | 10
O=C(c1ccncc1)N1C[C@@H]2[C@H](c3ccccc31)[C@H](CO)N2C(=O)Nc1ccc(F)cc1 | 10 | 13
O=C(C[C@@H]1C[C@H]2c3cc(NS(=O)(=O)c4ccccc4)ccc3O[C@H]2[C@H](CO)O1)N1CCCCC1 | 10 | 1
CCC(=O)N1[C@@H]2Cn3c(ccc(-c4ccccc4F)c3=O)[C@H]1[C@@H](C(=O)NC1CCCC1)[C@@H]2CO | 0 | 0
C[C@H]1CCCCO[C@H](CN(C)C(=O)CCC(F)(F)F)[C@@H](C)CN([C@@H](C)CO)C(=O)c2cc(NC(=O)Cc3ccccc3)ccc2O1 | -13 | -9
COc1ccc(S(=O)(=O)Nc2ccc3c(c2)C(=O)N([C@H](C)CO)C[C@@H](C)[C@@H](CN(C)C(=O)CCCN(C)C)OCCCC[C@@H](C)O3)cc1 | 23 | 13
C[C@@H]1CN([C@H](C)CO)C(=O)c2cc(C#CCN(C)C)cnc2O[C@@H]1CN(C)Cc1cccc(F)c1 | -10 | 6
C[C@H]1CN([C@@H](C)CO)C(=O)c2cc(/C=C/c3ccccc3)cnc2O[C@H]1CN(C)S(=O)(=O)c1cccs1 | ? | .
CCCC#Cc1ccc([C@H]2[C@H](CO)N3C(=O)CN(C(=O)Cc4cccnc4)C[C@@H]23)cc1 | 21 | 10
CN(C)C(=O)C[C@H]1CC[C@H](NC(=O)NC2CCCC2)[C@H](CO)O1 | -6 | 7
CCC(=O)Nc1ccc2c(c1)C(=O)N(C)[C@H]1CC[C@H](CC(=O)O)O[C@H]1CO2 | 2 | -8
CC(C)CC#Cc1cnc2c(c1)C(=O)N([C@H](C)CO)C[C@H](C)[C@H](CN(C)S(=O)(=O)c1cccs1)O2 | 9 | 6
COc1ccccc1NC(=O)N(C)C[C@@H]1OCc2cnnn2CCCC(=O)N([C@@H](C)CO)C[C@@H]1C | -16 | -23
C[C@@H]1CN([C@H](C)CO)C(=O)c2cc(NC(=O)NC3CCCCC3)ccc2O[C@H]1CN(C)Cc1ccc(-c2ccccc2)cc1 | ? | .
CN(C)Cc1cn(CC[C@H]2CC[C@H](NC(=O)Nc3ccccc3F)[C@@H](CO)O2)nn1 | 4 | 6
C[C@H](CO)N1C[C@H](C)[C@@H](CN(C)C(=O)Nc2cccc(F)c2)OCc2cn(nn2)CCCC1=O | 36 | 5
C/C=C/c1ccccc1[C@H]1[C@@H](CO)N(c2nc(CC)cs2)[C@H]1C#N | -10 | 0
COc1ccc2c3c([nH]c2c1)[C@H](CO)N(Cc1nccs1)CC31CCN(C(=O)C2CC2)CC1 | 2 | 14
CC(C)NC(=O)N1CCCCN2[C@H](CO)[C@H](c3ccc(C#Cc4ccccc4F)cc3)[C@H]2C1 | ? | .
C[C@@H]1CN([C@H](C)CO)C(=O)c2cccc(NS(=O)(=O)c3ccc(F)cc3)c2O[C@@H]1CN(C)S(=O)(=O)c1ccc(Cl)cc1 | 7 | -5
CCCN(C)C[C@@H]1OCCCC[C@H](C)Oc2ccc(NS(C)(=O)=O)cc2C(=O)N([C@@H](C)CO)C[C@H]1C | 6 | 4
O=C(Cc1ccncc1)N1CCCCN2[C@@H](CO)[C@H](c3ccc(C#CC4(O)CCCC4)cc3)[C@@H]2C1 | 27 | 10
COc1ccc(S(=O)(=O)Nc2ccc3c(c2)C(=O)N([C@@H](C)CO)C[C@@H](C)[C@@H](CN(C)Cc2ccc(C(=O)O)cc2)OCCCC[C@@H](C)O3)cc1 | 28 | 4
C/C=C/c1ccc2c(c1)O[C@@H](CN(C)C(=O)c1ccccn1)[C@H](C)CN([C@H](C)CO)S2(=O)=O | 17 | 5
COc1ccccc1NC(=O)N(C)C[C@@H]1OCc2ccccc2-c2c(n(C)c3ccccc23)C(=O)N([C@@H](C)CO)C[C@H]1C | ? | .
C[C@H]1CN([C@@H](C)CO)S(=O)(=O)c2ccc(-c3ccncc3)cc2O[C@@H]1CN(C)C | -2 | 2
C[C@@H]1CCCCO[C@H](CN(C)C(=O)Nc2ccccc2)[C@H](C)CN([C@@H](C)CO)C(=O)c2cc(NC(=O)Nc3ccc(F)cc3)ccc2O1 | 1 | 8
CNC[C@@H]1Oc2cc(C#CC3CCCC3)ccc2S(=O)(=O)N([C@@H](C)CO)C[C@H]1C | ? | .
CCCN1[C@@H]2c3ccc(-c4ccccc4)c(=O)n3C[C@@H]2[C@@H](CO)[C@@H]1C(=O)NCCc1cn(C)cn1 | -5 | 3
C[C@H](CO)N1C[C@H](C)[C@@H](CN(C)C(=O)c2ccncc2)OCCCC[C@H](C)Oc2ccc(NC(=O)c3ccncc3)cc2C1=O | 18 | 3
C[C@@H]1CN([C@@H](C)CO)C(=O)c2cc(NC(=O)Cc3ccccc3)ccc2O[C@H]1CN(C)C(=O)Nc1ccc(C(F)(F)F)cc1 | -9 | -19

Screens from PubChem.
